Bfl-1 A1 inh – inhibitors of the anti-apoptotic protein A1, read as caspase activation | actives 0.066% (n = 330,000) | MEF A1-2A-BIM cells, Caspase-Glo 3/7 luminescence, 3 h; percent of clofoctol response, vehicle zero | caspase activation, % (no concentration beside the values);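 active = over half of replicate activation scores above 10%, or exactly half above 10 with the replicate mean above 10; inconclusive = replicate mean below 10 yet half the replicates above 10; inactive = over half of replicates below 10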;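 also: wells of about 30 µL received 50 nL stock; many hits fall short of the cut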
AF4-AF9 inh – inhibitors of human MLL-AF4/AF9 interaction; P42568; AlphaScreen, biotin-AF4 peptide binding to FLAG-AF9; inhibition, % at 10 µM; actives 0.47% (n = 350,000); AID 651704;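 active = every replicate reaching a set inhibition limit, whatever the replicate mean, cut at about 25% in these data; inconclusive = mean inhibition reaches that limit but some replicates miss it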;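 also: 0% = plate neutral control median and 100% = total signal loss; the record names both 10 and 1 µM as test concentration; the first replicate is given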
T cruzi inh – blocks replication of Trypanosoma cruzi. T. cruzi beta-gal in NIH3T3, luminescence, 90 h. inhibition, % (test concentration not listed). actives 1.4% (n = 300,000). AID 1885;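 active = mean inhibition across valid replicates above about 55%, limit read from the data; inconclusive = mean below that limit but half or more replicates reach it; inactive = mean below it, under half of replicates reach it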;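 also: signal also drops with host cell toxicity which is not excluded here; 0% = plate median of DMSO wells and 100% = zero luminescence signal; higher percent means less beta-gal luminescence so fewer parasites; stock transfer was 50 nL into about 50 µL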
LANA-H2B inh – blocks KSHV LANA binding to histone H2A/H2B. inhibition, % (concentration not given with the values). actives 0.6% (n = 320,000). cell-free LANA-H2A/H2B peptide, fluorescence polarization. Q9QR71. AID 2629; in the data active = inhibition mostly above about 10%, no sharp cut-off; inactive = mostly below about 6.7%;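 also: stock transfer was 7.5 nL into about 10 µL; 0% = median of vehicle wells and 100% = median of positive control wells; one replicate is shown; the record names a cut of 25% in any replicate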
Target sequence (Q9QR71 whole entry, looked up): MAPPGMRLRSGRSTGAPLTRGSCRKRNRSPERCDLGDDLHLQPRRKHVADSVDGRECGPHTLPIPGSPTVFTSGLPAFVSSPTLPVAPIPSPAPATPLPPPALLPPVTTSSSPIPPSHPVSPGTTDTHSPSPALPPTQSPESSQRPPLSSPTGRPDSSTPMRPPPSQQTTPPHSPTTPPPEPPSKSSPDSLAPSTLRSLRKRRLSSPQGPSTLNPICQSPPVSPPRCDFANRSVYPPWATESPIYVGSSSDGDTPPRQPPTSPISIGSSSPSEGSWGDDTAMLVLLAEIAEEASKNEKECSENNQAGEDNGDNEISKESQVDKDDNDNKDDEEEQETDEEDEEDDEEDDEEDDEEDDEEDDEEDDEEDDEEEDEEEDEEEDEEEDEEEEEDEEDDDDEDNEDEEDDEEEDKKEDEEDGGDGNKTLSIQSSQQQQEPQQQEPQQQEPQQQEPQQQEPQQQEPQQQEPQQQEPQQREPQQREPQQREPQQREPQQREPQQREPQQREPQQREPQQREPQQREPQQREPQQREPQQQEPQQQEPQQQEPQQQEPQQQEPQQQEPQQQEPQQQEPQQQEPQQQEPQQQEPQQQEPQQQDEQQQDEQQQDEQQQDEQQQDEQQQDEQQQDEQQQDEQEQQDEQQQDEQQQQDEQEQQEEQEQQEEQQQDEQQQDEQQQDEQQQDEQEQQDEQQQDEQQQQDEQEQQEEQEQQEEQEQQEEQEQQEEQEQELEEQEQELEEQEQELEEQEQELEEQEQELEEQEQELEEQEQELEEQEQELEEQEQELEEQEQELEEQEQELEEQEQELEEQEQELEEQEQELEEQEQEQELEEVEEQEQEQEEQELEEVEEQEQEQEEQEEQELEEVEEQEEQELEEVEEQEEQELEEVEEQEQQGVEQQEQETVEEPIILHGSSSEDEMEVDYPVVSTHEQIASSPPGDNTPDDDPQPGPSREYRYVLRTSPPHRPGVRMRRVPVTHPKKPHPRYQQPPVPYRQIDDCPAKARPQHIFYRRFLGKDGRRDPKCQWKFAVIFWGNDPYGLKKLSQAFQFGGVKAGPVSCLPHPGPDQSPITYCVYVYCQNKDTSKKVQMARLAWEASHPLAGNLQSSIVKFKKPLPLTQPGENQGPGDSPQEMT
RanGTP-Impb inh – disruptors of Ran-importin-beta complex formation – biochemical, FRET, CFP-Ran, YFP-importin-beta, homogeneous, primary screen | AID 2216 | cell-free CFP-Ran/YFP-importin-beta FRET ratio | inhibition, % (concentration not given with the values) | actives 1.1% (n = 300,000);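 active = most replicates above 15%; inconclusive = exactly half above 15%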;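 also: 0% = DMSO wells and 100% = Ran loaded with GDP instead of GTP; wells of about 40 µL received 100 nL stock; the first replicate is given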
Calb FLC – affects C. albicans growth with fluconazole; C. albicans CaCi-2 (fluconazole-resistant clinical isolate) + fluconazole, Alamar Blue growth, 48 h; growth inhibition, % (concentration not given with the values); actives 0.57% (n = 300,000); AID 1979;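 active = most replicates above 75%; inconclusive = exactly half above 75%; inactive = most below 75%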;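 also: all wells also contain fluconazole at 8 µg/ml as a sub-toxic cotreatment; 0% = median of DMSO wells and 100% = median of geldanamycin control wells; wells of about 8 µL received 7.5 nL stock; the first replicate is given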
Beta apoptosis – beta cell apoptosis inhibition; INS-1E cytokine-induced death, ATP luminescence, 48 h; percent of positive-control rescue, neutral wells zero; actives 0.8% (n = 300,000); protection from apoptosis, % (concentration not given with the values);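 active = all replicates at 75% or more, or half of them and the mean; inconclusive = half reach 75% but not the mean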;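 also: 0% = cytokine-treated negative control wells and 100% = positive control rescue; higher means more ATP so stronger rescue from cytokine killing; wells of about 40 µL received 100 nL stock; the first replicate is given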
Vif A3G – HIV-1 Vif–A3G interaction blockers – biochemical, TR-FRET, GST-Vif 1-94, biotin-A3G peptide, dose response retest, primary screen (AID 1117319); TR-FRET GST-Vif / biotin-A3G peptide binding; higher % means a stronger effect; test concentration not given here; strong numbers were not always called active; one-dose inhibition, %; IC50 in µM for titrated hits; actives 0.57% (n = 260,000);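 active = above the screen mean plus three standard deviations and confirmed in dose response; inconclusive = results disagree or hit not tested in dose response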;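 also: Vif residues 1-94 fused to GST binding biotinylated APOBEC3G peptide 110-148; 0% = full assay without inhibitor and 100% = GST in place of GST-Vif; retest series ran down from 100 µM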
The depositor's hits bear a star; ? = inconclusive; / = not tested or not shown.

SMILES	Bfl-1 A1 inh	AF4-AF9 inh	T cruzi inh	LANA-H2B inh	RanGTP-Impb inh	Calb FLC	Beta apoptosis	Vif A3G
O=C(Nc1cccnc1)c1cc(S(=O)(=O)N2CCOCC2)ccc1Br	-0.2	-0.2	-11	6.9	1.2	-4	1	6%
CN(C)C(=O)c1ccc(NC(=O)COC(=O)C2(c3ccccc3)CCCC2)cc1	-0.4	1.3	/	-1.1	/	/	-8	/
O=C(CC1S/C(=N/N=C/c2cccs2)NC1=O)Nc1ccc(Cl)cc1 (stereo not drawn)	0.0	-0.2	-15	/	-1.6	0	-5	/
N/C(=N\OC(=O)COc1ccc2ccccc2c1Br)c1ccccn1	0.5	-5.1	0	-5.1	-5.5	5	-1	-21%
C=CCn1c(SCC(=O)NCC)nnc1-c1cc2c(s1)CCC(CC)C2 (stereo not drawn)	-1.2	6.9	8	-0.1	0.0	5	-4	1%
COC(=O)C1=C(N)N(c2ccc(F)cc2)C2=C(C(=O)CCC2)C1c1ccc2c(c1)OCO2 (stereo not drawn)	-0.2	/	9	-1.3	-0.9	-1	11	-32%
Cc1cc(/C=C(\C#N)C(=O)OCC(=O)NC(=O)NC(C)(C)C)c(C)n1CCC(C)C	-0.8	/	-5	0.8	2.0	-1	12	?
NNC(=O)COc1cccc(C(F)(F)F)c1	-0.2	-0.9	-8	3.6	-1.5	0	-1	13%
COc1cc2ncc(S(=O)(=O)c3ccccc3)c(N3CCC4(CC3)OCCO4)c2cc1OC	-1.1	2.0	-1	-2.0	1.7	2	8	-4%
O=C(Cn1nnc(-c2ccc(N3CCOCC3)cc2)n1)N1CCOCC1	-0.9	/	2	-10	1.8	1	-3	/
COc1ccc(-c2nn(-c3ccccc3)cc2/C=N/Nc2ccccn2)cc1	0.4	/	-1	-4.7	-1.4	7	15	12%
COc1cc(C)c(NC(=S)Nc2cccc(Cl)c2C)cc1OC	0.6	-1.0	-4	-2.1	-0.5	-13	2	/
Cn1ncc(Br)c1C(=O)N1CCCCCC1	0.0	-1.9	-14	-1.5	-0.8	0	-3	/
CCOC(=O)Cc1ncccc1C(=O)Nc1ccc(OC(F)(F)F)cc1	1.5	-0.7	18	-0.2	-1.7	-5	4	9%
Cc1cccc(Oc2nc(-c3ccccc3)cc(C)c2S(C)(=O)=O)c1C	0.2	/	32	-0.5	0.5	-17	0	-1%
COc1cccc(NS(=O)(=O)c2ccc3c(c2)n(C)c(=O)c(=O)n3C)c1	1.1	/	5	-0.4	0.6	-13	-2	8%
CCOc1ccc(C2C(C(N)=O)=C(C)Nc3ncnn32)cc1OC (stereo not drawn)	0.2	-1.8	-4	0.4	-1.8	-5	-4	-2%
COc1ccc(CN2CCc3c([nH]c4ccccc34)C2)c(OC)c1C	-0.6	18	38	-7.1	-4.2	9	-6	-4%
Cc1ccc(NC(=O)c2ccc3c(c2)OCO3)cc1Cl	-2.0	-3.2	-18	-6.1	4.0	-7	9	-1%
COC(=O)c1ccc(Nc2cc(C)nc(-c3ccccc3O)n2)cc1	0.0	/	3	-3.9	-0.3	3	3	2%
CCCC(C(=O)NC(C)(C)C)N(C(=O)c1snc(C(N)=O)c1N)c1ccc2c(c1)OCCO2 (stereo not drawn)	0.8	2.8	24	-1.3	1.7	2	-6	-1%
Cn1c(=O)n(C)c2cc(NC(=O)CSc3nc4ccccc4c(=O)[nH]3)ccc21	0.5	-1.0	-9	-2.3	-1.9	-1	3	/
O=S(=O)(NCc1c(Cl)cccc1Oc1ccccc1)c1ccccc1	0.3	/	19	-1.7	2.6	1	/	/
COc1ccc(C2=NCCn3c2c2ccc(C(F)(F)F)cc2[n+]3[O-])cc1	0.2	/	-19	2.4	8.8	20	-4	/
O=C(CC(c1ccccc1)c1ccccc1O)NCCc1ccccc1 (stereo not drawn)	0.4	4.5	-1	-2.6	0.5	17	-10	-7%

Remaining list, next part:
SMILES	Bfl-1 A1 inh	AF4-AF9 inh	T cruzi inh	LANA-H2B inh	RanGTP-Impb inh	Calb FLC	Beta apoptosis	Vif A3G
O=C(CCC(=O)N1CCOc2ccccc21)Nc1ccccc1Cl	0.3	?	-8	-5.8	0.4	-16	0	/
COc1cc(C2CC(=O)N(CC(=O)NCC3CCCO3)c3ccccc3S2)cc(OC)c1OC (stereo not drawn)	0.6	-2.7	9	-1.9	1.6	4	2	11%
CCc1cc(Br)ccc1NC(=S)NCCc1ccccc1	-0.4	2.1	/	-0.6	/	-35	-3	3%
O=C(O)CC(Cc1ccc(Cl)cc1)C(=O)NCc1ccccc1 (stereo not drawn)	2.2	-1.6	12	-2.1	2.1	-1	-4	/
CCOC(=O)C1CCN(C(=O)CSc2cc(=O)n(CC)c3ccccc23)CC1	0.1	/	10	3.7	?	-6	-2	?
CC1CCCC(NC(=O)C2CCN(S(=O)(=O)N3CCC4(CC3)OCCO4)CC2)C1C (stereo not drawn)	0.3	/	-3	-2.6	-0.6	22	2	1%
CS(=O)(=O)N1CCN(C(=O)Cc2ccc([N+](=O)[O-])cc2)CC1	0.6	-2.1	-4	-3.2	4.7	0	-2	6%
CCc1sc(C(=O)NC)cc1Br	-0.3	/	-7	2.8	1.3	2	2	3%
CCC(C)NC(=O)C1CCN(S(=O)(=O)c2ccc3[nH]c(=O)ccc3c2)CC1 (stereo not drawn)	0.8	-0.6	-4	-4.2	0.8	-8	4	/
Cc1ccc(S(=O)(=O)NNC(=O)c2sc(NS(=O)(=O)c3ccccc3)nc2C)cc1	0.3	-2.2	-4	-14	1.2	25	-3	4%
OCc1ccccc1OCCOc1ccc(Cl)c2cccnc12	-0.1	/	6	-3.0	-1.7	15	/	2%
COC(=O)[C@]1(Cc2ccccc2)N[C@H](CN(C)C(=O)Nc2ccc(Cl)cc2)[C@@H]2C(=O)N(Cc3ccccc3)C(=O)[C@@H]21	-0.6	1.4	/	-1.0	/	/	12	-8%
CC(C)(C)C(=O)Nc1ccccc1C(=O)NCCCn1ccnc1	0.8	0.5	-9	1.0	-3.7	-12	-2	0%
CN(C)S(=O)(=O)c1cccc(NC(=O)c2cc(=O)[nH]c3ccccc23)c1	1.4	-1.7	11	-14	-2.8	-11	-12	/
COc1cccc2sc(/N=C/N(C)C)nc12	-4.7	/	-16	-6.1	4.9	19	-3	/
O=C(COC(=O)c1ccc(-c2nnc(-c3ccccc3)o2)cc1)c1ccccc1	-10.0	2.7	-12	4.4	5.1	-2	11	?
Cc1ccc2[nH]c(=O)c(C(c3nnnn3Cc3ccccc3)N3CCc4ccccc43)cc2c1 (stereo not drawn)	0.1	/	6	-1.2	20*	24	-10	22%
COc1ccc(NC(=O)C2CCCN2S(=O)(=O)c2ccc3c(c2)CC(C)N3C(C)=O)cc1OC (stereo not drawn)	-0.4	1.9	-7	2.7	-2.6	-1	-5	/
CCc1sc(C(=O)Nc2nc(C)cs2)cc1C	/	2.6	32	/	-4.9	-14	/	/
O=c1c2ccccc2nc2ccc(NCc3cccs3)nn12	-1.4	-0.8	9	-3.6	6.3	-3	-3	18%
O=S(=O)(Nc1c(F)cccc1F)c1ccc(Cl)nc1	-0.5	-1.1	1	6.1	-1.4	/	-1	/
Cc1nn(C)c(Cl)c1CN1CCCC(CCC(=O)NCc2ccccc2F)C1 (stereo not drawn)	0.3	-0.3	60*	2.5	4.8	-26	1	9%
COc1cc(S(=O)(=O)N2CCOCC2)ccc1NC(=O)COC(=O)c1cc(OC)c(OC)c(OC)c1	-0.7	0.6	/	-0.4	/	/	2	/
O=C(NN1C(=O)c2ccccc2NC1c1ccc([N+](=O)[O-])o1)c1ccc(Br)cc1 (stereo not drawn)	0.4	1.9	49	0.6	1.0	-4	22	-5%
CCCC1OC23CCCCC2C(C#N)(C#N)C1(C#N)C(=N)O3 (stereo not drawn)	0.4	/	4	4.8	42*	4	-7	/

More results follow:
SMILES	Bfl-1 A1 inh	AF4-AF9 inh	T cruzi inh	LANA-H2B inh	RanGTP-Impb inh	Calb FLC	Beta apoptosis	Vif A3G
Cn1cc(/C=C(\NC(=O)c2ccccc2)C(=O)N2CCOCC2)c2ccccc21	-0.2	0.6	-13	0.1	2.7	-6	-2	/
NS(=O)(=O)c1ccc(CCNC(=O)CSc2ccc(Cl)cc2Cl)cc1	0.9	-13	1	-10	2.6	20	-1	/
CCOC(=O)c1ccc(NC(=O)NC(C)C2CCCO2)cc1 (stereo not drawn)	0.4	/	-12	-2.2	-0.8	-8	0	-2%
Cn1c(=O)n(C)c2cc([N+](=O)[O-])c(N3CCN(C(=O)c4ccc(Cl)cc4)CC3)cc21	-0.5	7.3	1	6.3	1.9	-10	-12	6%
CC(C)CCNC(=O)C(=O)Nc1ccccc1	-4.5	-0.9	-5	-5.6	-5.3	-23	-5	15%
Cc1coc2c1c(C)cc1oc(=O)c(CC(=O)NCC(=O)N[C@H](C(=O)O)C(C)C)c(C)c12	0.4	-0.5	-3	1.5	?	0	0	-4%
COc1ccc(S(=O)(=O)N2CCCN(CC(=O)C(C)(C)C)CC2)cc1	-1.7	/	17	-3.2	1.1	-2	0	1%
O=S(=O)(c1ccccc1)N1CCN(S(=O)(=O)N2CCCCC2)CC1	-0.3	/	-3	-4.3	0.3	5	2	67%
O=C1C=C(N2CCCCCC2)C(=O)N1c1ccc(Cl)cc1	-1.0	-21	-1	-1.6	-2.8	-7	5	4%
COc1cc(C=O)ccc1OC(=O)c1ccncc1	-0.1	-2.1	-5	1.2	2.5	7	0	14%
O=S(=O)(c1c(F)cccc1F)C1CCN(S(=O)(=O)c2ccc3c(c2)OCCO3)CC1	-0.4	-24	/	3.1	/	/	3	/
CCCCC(=O)NNC(=S)NC(=O)CCC	0.5	/	-11	4.9	0.6	-6	-1	15%
O=C(O)c1ccccc1C(=O)NNc1ccc(Cl)cc1	0.7	/	-11	-3.1	4.6	-28	-4	4%
CC(=O)c1ccccc1OC(=O)c1c(F)cccc1F	0.6	-7.5	-6	1.7	-0.6	3	6	-5%
Cc1nc2ccc(C(=O)N/N=C/c3cc([N+](=O)[O-])ccc3O)cc2[nH]1	-0.2	3.1	-6	4.8	5.5	1	2	/
CC1CCN(C(=O)c2ccc(COc3ccccc3Cl)o2)CC1	-0.5	/	32	-2.2	-0.7	-3	5	4%
Cc1ccc(N2C(=O)C3C(c4ccccc4)N4CCCN4C3(C)C2=O)cc1 (stereo not drawn)	0.0	-5.7	-2	7.4	0.3	12	-5	1%
COc1ccccc1NC(=O)C1CCCN(S(=O)(=O)c2ccc3[nH]c(=O)ccc3c2)C1 (stereo not drawn)	-0.7	0.5	0	1.7	-0.1	7	4	-15%
Cc1cc(Nc2ccc(Cl)cc2)nc(NCc2ccccc2)n1	0.7	/	43	0.2	?	?	16	/
COC(=O)c1cc(NC(=O)CN(c2ccc3c(c2)OCO3)S(C)(=O)=O)ccc1Cl	0.5	/	2	5.2	0.7	-1	1	17%
COc1ccc(-c2ccc3oc(-c4ccsc4)cc(=O)c3c2)cc1F	-2.4	3.4	/	6.5	/	/	-6	/
O=C(CNS(=O)(=O)c1ccccc1)N/N=C\c1ccc(Cl)cc1	1.4	/	3	7.6	-0.6	1	-15	13%
